Screens (PubChem BioAssay)
GLA inh pH 4.5: qHTS Assay for Inhibitors of Human alpha-Galactosidase at pH 4.5 | Alpha-galactosidase A (Homo sapiens), P06280 | AID 1467, 2008 | activity change, negative = inhibition, % at 105 µM | 230,000 tested, under 10 active | purified enzyme, 4-MU-alpha-Gal fluorescence, pH 4.5; inconclusive = small, poorly fitted or top-dose-only inhibition, or a rising curve; inactive = flat fitted curve, though single readings scatter; no compound was filed as active;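 note: 0% = full activity with enzyme and -100% = basal without enzyme; dose as in the result columns while the protocol names 77 µM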
Target sequence (P06280 whole entry, looked up): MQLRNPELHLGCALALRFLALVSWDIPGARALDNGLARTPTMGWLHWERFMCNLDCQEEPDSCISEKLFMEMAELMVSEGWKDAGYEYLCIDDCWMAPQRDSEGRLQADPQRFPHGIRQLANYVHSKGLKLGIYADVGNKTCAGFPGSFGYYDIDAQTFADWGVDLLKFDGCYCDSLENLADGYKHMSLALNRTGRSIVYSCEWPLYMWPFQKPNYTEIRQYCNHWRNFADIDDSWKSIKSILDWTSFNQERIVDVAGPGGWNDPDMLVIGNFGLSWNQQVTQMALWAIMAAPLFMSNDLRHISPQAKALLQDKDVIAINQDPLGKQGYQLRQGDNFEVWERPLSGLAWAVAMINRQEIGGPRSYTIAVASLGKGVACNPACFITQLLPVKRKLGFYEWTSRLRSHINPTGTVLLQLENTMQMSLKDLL
Rango release inh: qHTS Assay for Inhibitors of RanGTP induced Rango (Ran-regulated importin-beta cargo) - Importin beta complex dissociation | Biochemical FRET Rango-importin beta, RanGTP-induced dissociation | Potency, µM (series often up to 46.1 µM), without a hit: at the highest dose activity change, negative = inhibition | 340,000 compounds, 0.071% hits | AID 540253, 2011; active means falling FRET ratio curve, often poorly fitted, with flat reads before Ran was added; inconclusive means other falling curves, or compound fluorescence or quenching; inactive means flat or rising ratio curve;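 note: potency is the fitted concentration of half-maximal effect; % of control where 0% means no effect; nearly all actives have a fitted effect of over 45% in size; -100% = wells without RanGTP and RCC1; the record marks most hits as doubtful in a second field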
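Rango/importin beta premix (0.1/0.25 uM final), PBS + 1 mM DTT + 0.02% Tween-20 + 0.1% BSA; cpd 5 min RT; FRET pre-read; + RanGTP-RCC1 (0.6 uM Ran, 2 mM GTP, 0.2 uM RCC1); 45 min RT; FRET post-read, ex 430, em 486/530 nm.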
miR-21 reporter: qHTS Assay for Modulators of miRNAs and/orActivators of miR-21; HeLa miR-21 FLuc reporter, luciferase, 48 h; Potency, µM (titrated, usually from 38.3 µM), without a hit: at the highest dose reporter change, positive = more light; 340,000 tested, under 10 active; active = well fitted rising curve with a large enough effect; inconclusive = small, poorly fitted or top-dose-only effect; inactive = no such curve, though single readings can be large or run the other way;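 note: % of control where 0% means no effect; miR-21 action dims this reporter so a rising signal means less miR-21 action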
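Luminescence from a firefly luciferase reporter carrying a miR-21 binding site downstream, stably expressed under a CMV promoter in HeLa cells that make miR-21 endogenously, reports miRNA modulation after 48 h compound exposure up to approximately 40uM final.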
Rango-impB inh: qHTS Assay for Inhibitors of Rango (Ran-regulated importin-beta cargo) - Importin beta complex formation | Importin subunit beta-1 (Homo sapiens), Q14974 | Rango CFP/YFP FRET sensor + importin beta, 45 min | Potency, µM (highest dose often 92.2 µM), inactives show at the top dose inhibition of complex formation | 340,000 compounds, 0.031% hits | AID 540263, 2011; active = rising FRET ratio curve, often small or poorly fitted; inconclusive = mostly compound fluorescence or quenching in the first reads; inactive = flat curves in all reads;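 note: potency is the fitted concentration of half-maximal effect; 0% = DMSO wells and 100% = buffer wells lacking importin beta; nearly all actives have a fitted effect of over 15% in size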
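Inhibition scored from the CFP 486 nm/YFP 530 nm FRET ratio 45 min after adding 0.125 microM importin beta to 50 nM Rango biosensor preincubated 5 min with compound (room temperature, PBS with DTT, Tween-20, BSA). No-importin wells as positive control.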
Numbers without * were called inactive; ? = inconclusive; . = not tested or not shown; & = joins results of further samples.

SMILES	GLA inh pH 4.5	Rango release inh	miR-21 reporter	Rango-impB inh
Cc1cc(C)nc(N2CCCC(C(=O)NCc3cccc(C(F)(F)F)c3)C2)n1 (stereo unspecified)	1	0%	-2%	-4.1%
Cn1nc(C(=O)Nc2cccnc2)c2ccccc2c1=O	-2	4%	-6%	0.7%
CCn1c(COc2c(C)cccc2C)nnc1SCC(=O)N1CCN(c2ccccc2)CC1	1	10%	27%	?
Nc1ccc(S(=O)(=O)NCc2ccccn2)cc1	.	-15%	-1%	-2.0%
CS(=O)(=O)c1ccc(Cl)c(NC(=O)COC(=O)c2c(Cl)cccc2Cl)c1	0	0%	-10%	-3.6%
Cc1cccc(NC(=O)CNC(=O)c2ccco2)n1	.	-7%	.	-3.7%
COC(=O)c1cc(CNC(=O)c2ccc(S(=O)(=O)N(C)c3ccccc3)cc2)ccc1OC	.	25%	.	-1.1%
CCCCSc1nc2c(c(=O)[nH]1)CCC2	-7	-4%	-7%	-0.7%
CCC1CCCCN1CCCNC(=O)Cn1cnc2sc(C)c(S(=O)(=O)N3CCC(C)CC3)c2c1=O (stereo unspecified)	.	-10%	6%	-1.3%
CCCCC1CCCOC(C(=O)NCCNCCO)(C(F)(F)F)C1 (stereo unspecified)	.	3%	.	0.5%
COc1ccc(/C=N\NC(=O)c2ccccc2[N+](=O)[O-])cc1COc1c(F)c(F)c(F)c(F)c1F	.	14%	-7%	-0.5%
O=C(CSc1ccccn1)N/N=C/C=C/c1ccccc1	-6	21%	-28%	-2.9%
Cc1cc(C)cc(NC(=O)CCn2c(=O)c3cccn3c3ccccc32)c1	.	?	13%	1.3%
CCOC(=O)c1nnn(-c2nonc2N)c1CNc1ccc(C)c(Br)c1	-8	-3%	-6%	-1.7%
CCN(C(=O)CSc1nc2ccccc2n1C)C1CCS(=O)(=O)C1 (stereo unspecified)	.	2%	.	-1.8%
CCOC(=O)/C(Sc1nc(-c2ccccc2)cc(-c2ccccc2)c1C#N)=C(\C)O	.	?	-3%	?
CCc1cccc(NC(=O)Cn2cc(C=O)c3ccccc32)c1	-3	11%	15%	-2.8%
O=C(CSCc1ccc(C(=O)O)cc1)Nc1ccccc1	-1	8%	-1%	0.2%
CCOc1ccc(C(=O)NC(=S)Nc2ccccc2N2CCC(C)CC2)cc1[N+](=O)[O-]	-9	0%	-2%	0.1%
COc1ccccc1N(CC(=O)NC(C)(C)C)C(=O)CCC(=O)Nc1ccccn1	.	-4%	1%	-1.0%
O=C(C[C@@H]1C/C=C/CC[C@H](Cc2ccc(F)cc2)C(=O)OCCNC1=O)N[C@H](CO)Cc1ccccc1	.	1%	.	-0.2%
CC(=O)c1ccc(OCC(O)CN2C(C)(C)CC(O)CC2(C)C)cc1 (stereo unspecified)	-9	3%	1%	2.9%
COc1ccc(N(C(C)=O)c2nc(C)cc(C)c2C#N)c(OC)c1	9	?	0%	2.1%
c1ccc(-c2nccnc2-c2ccccc2)cc1	6	-4%	15%	0.7%
COC(=O)c1cc(NS(=O)(=O)c2ccc(N3CCOCC3)c([N+](=O)[O-])c2)cc(C(=O)OC)c1	-1	2%	-6%	-0.4%

The results go on:
SMILES	GLA inh pH 4.5	Rango release inh	miR-21 reporter	Rango-impB inh
CC(=O)Nc1cccc(NC=C(C#N)C#N)c1	4	-4%	0%	0.3%
CC(Sc1nnc(COc2ccc(Cl)cc2)n1Cc1ccccc1)C(=O)O (stereo unspecified)	2	17%	-1%	-1.2%
N/C(=N\OC(=O)COc1ccccc1Cl)c1ccc(Cl)cc1	-9	1%	-28%	0.2%
Cc1cc(NC(=O)CCCN2C(=O)c3cccnc3C2=O)no1	5	-1%	2%	4.2%
CCCNC(=O)c1c(CSc2ccc(Cl)cc2)noc1C(=O)NCc1ccccc1	.	2%	.	-1.1%
O=C(NC(=S)NC1CCSC1=O)c1ccccc1 (stereo unspecified)	-10	21%	-5%	-1.2%
COc1cccc(OC)c1OCCCCN1CCCCC1	.	-1%	1%	0.2%
O=C1COc2ccc(S(=O)(=O)N3CCN(c4ccccc4)CC3)cc2N1	.	-22%	-4%	-10%
COc1cccc(/C=C/c2nc(C#N)c(NCC(C)C)o2)c1	.	?	-12%	?
COC(CNC(=O)c1ccc2c(c1)ncn2-c1cccc(C)c1)OC	.	2%	-17%	0.5%
Cc1ccc2c(CC(=O)Nc3c(C)n(C)n(-c4ccccc4)c3=O)coc2c1	4	8%	0%	-4.6%
CCCCn1c(N)c(N(Cc2ccccc2OC)C(=O)COc2cc(C)ccc2Cl)c(=O)[nH]c1=O	.	-4%	.	1.8%
C#CCOCCOCCOCCNc1nc(N2CCN(C(=O)CCCCCCCCCCNC(=O)[C@H](CCCCN)n3cc(CCCC(=O)O)nn3)CC2)nc(N2CCN(C(=O)CCCCCCCCCCNC(=O)[C@H](CCCCN)n3cc(CCCC(=O)O)nn3)CC2)n1	.	-4%	.	1.2%
CCc1ccc(NC(=O)C(=O)N/N=C(\C)CC(=O)Nc2ccccn2)cc1	1	-12%	-42%	-6.9%
Cc1ccc2cccc(SCC(=O)NCC#N)c2n1	0	15%	-3%	8.3%
CN(C(=S)NC(=O)C12CC3CC(CC(C3)C1)C2)c1ccc(O)cc1	.	-16%	.	-1.0%
CCOC(=O)c1sc2ccccc2c1NC(=O)c1coc2ccccc2c1=O	0	22%	-4%	-4.5%
CCN1CSC(=S)N(Cc2ccc(OC)cc2)C1	-5	0%	12%	-0.5%
CCC1=C(OC(=O)N(CC)CC)N2C(=O)OC(=NCc3ccccc3)[C@]2(C)[C@H]2C1=CC[C@H]1C(=O)N(CC(=O)OC)C(=O)[C@H]12	-7&3	-24%	0%	0.0%
COC(=O)c1c(C(=O)OC)c2n(c1C)Cc1ccccc1C2	0	14%	-10%	-0.5%
C/C(=N/NC(=O)CNC(=O)c1ccncc1)c1ccco1	3	6%	1%	4.8%
O=C(NN=C1CCCC1)c1cc(O)cc(O)c1	.	0%	-4%	5.1%
Cc1nc(NC2=NCN(CCc3ccccc3)CN2)nc2ccccc12	12	.	8%	.
Cc1c(C)n(C)c2ccc(C(=O)N3CCN(c4ccccn4)CC3)cc12	.	-2%	1%	-3.8%
CC12CCC(=O)N1C(C(=O)Nc1ccc(F)cc1)CS2 (stereo unspecified)	.	-1%	1%	0.4%

Part of the list above, with values ahead of the structure:
GLA inh pH 4.5	Rango release inh	miR-21 reporter	Rango-impB inh	SMILES
.	?	-12%	?	COc1cccc(/C=C/c2nc(C#N)c(NCC(C)C)o2)c1
.	2%	-17%	0.5%	COC(CNC(=O)c1ccc2c(c1)ncn2-c1cccc(C)c1)OC

(more compounds)
SMILES	GLA inh pH 4.5	Rango release inh	miR-21 reporter	Rango-impB inh
CC(C)[N+]1=C2C=CC=CC=C2SC12C([N+](=O)[O-])=CC(=[N+]([O-])[O-])C=C2[N+](=O)[O-] (stereo unspecified)	7	-5%	0%	-0.9%
CCN(CC)CCn1c(NCc2cccc(OC)c2)nc2ccccc21	-10	?	-15%	3.9%
CO[C@H]1/C=C/O[C@@]2(C)Oc3c(C)c(O)c4c(O)c(c5c(c4c3C2=O)NC2(CCN(CC(C)C)CC2)N=5)=NC(=O)/C(C)=C\C=C\[C@H](C)[C@H](O)[C@@H](C)[C@@H](O)[C@@H](C)[C@H](OC(C)=O)[C@@H]1C	.	1%	.	-0.2%
COc1ccc(NS(=O)(=O)c2ccc(N3CCOCC3)c(NC(=O)c3ccc(OC)cc3)c2)cc1	-2	-7%	-2%	-2.8%
O=C(COc1ccc(Br)cc1)N1CCC(c2ccccc2)C1 (stereo unspecified)	-15	-8%	-19%	0.8%
O=C(CSc1nnc(-c2ccco2)n1-c1ccccc1Cl)Nc1cccc(C(=O)O)c1	.	-2%	4%	1.7%
CCN1CCN(C(=S)Nc2ccc(Cl)cc2Cl)CC1	2	-14%	-4%	0.2%
CCOc1ccccc1NC(=O)c1nc(S(=O)(=O)Cc2cccc(C)c2)ncc1Cl	.	27%	2%&12%	-3.4%
O=C(COc1ccccc1)Nc1nc2c(s1)CCCC2	.	-4%	-46%	-1.6%
O=C(CCNC(=O)c1ccc(Br)o1)NCc1ccc(Cl)cc1	0	1%	-7%	-3.0%
NC(=O)NC1(C(=O)O)CCCC1	.	-2%	.	-1.7%
O=C(NNC(=O)C1[C@H]2CCCC[C@@H]12)c1ccc(=O)oc1 (stereo partly specified)	-8	?	-12%	?
Cc1ccc(S(=O)(=O)n2cc(-c3ccccc3)c(N)n2)cc1	-10	-1%	8%	-0.7%
Cc1ccc(C)c(-c2cc(C(=O)NNC(=S)NCC(C)C)c3ccccc3n2)c1	-10	9%	1%	-3.2%
COc1cccc(-n2c(SCC(=O)N3CCCCC3)nc3c([nH]c4ccccc43)c2=O)c1	3	-5%	-3%&-1%	-4.8%
CCOc1ccc(C(=O)NCC(=O)NNC(=O)c2ccco2)cc1OCC	.	-1%	.	-1.1%
O=C(Nc1cccc(S(=O)(=O)N2CCOCC2)c1)C1COc2ccccc2O1 (stereo unspecified)	.	3%	.	-3.4%
Cc1c(NC(=O)C(C#N)=C2CCCCC2)c(=O)n(-c2ccccc2)n1C	3	-5%	-5%	0.1%
CC(C)[C@H](N)c1cn([C@@H](CC(N)=O)C(=O)N2CCNCC2)nn1	.	0%	.	3.8%
c1ccc(OCc2nc(-c3cccs3)no2)cc1	-7	11%	-65%	-0.6%
O=C(CSc1nnc(-c2cccs2)n1-c1ccccc1)c1ccc2c(c1)OCCO2	-5	1%	-4%	2.3%
COc1ccc(OC)c(S(=O)(=O)NC2CCN(Cc3ccccc3)CC2)c1	-2	-3%	-5%	5.1%
COc1ccccc1CNC(=O)CCS(=O)(=O)c1ccc(Cl)cc1	.	0%	.	0.3%
CC1CCC2(CC1)OCC1(CCC3(COC4(CCC(C)CC4)OC3)C1=O)CO2 (stereo unspecified)	7	-5%	-1%	1.3%
COc1cc(OC)c(-n2c(C)cc(C=O)c2C)cc1Cl	9	1%	-3%	-0.1%

Next section
SMILES	GLA inh pH 4.5	Rango release inh	miR-21 reporter	Rango-impB inh
COc1cc(C(=O)NCc2ccccc2)cc(Br)c1OC	5	-1%	4%	0.6%
CCC(C)c1c(N)n(S(=O)(=O)c2ccc(C)cc2)oc1=O (stereo unspecified)	.	-8%	.	7.0%
CCC1Oc2ccc(C)cc2N(CC(=O)NCCCN2CCCCC2CC)C1=O (stereo unspecified)	2	8%	-8%	-2.8%
O=C(NCCc1ccccc1)C(=O)c1c[nH]c2ccccc12	.	-1%	-47%	-1.7%
Cc1ccc(N(C)S(=O)(=O)c2ccc(C)cc2)cc1	-1	-1%	-5%	0.5%
COc1ccc(N(CCCN2C(=O)c3cccc4cccc(c34)C2=O)C(=O)c2cccs2)cc1	-2	-2%	-1%	1.0%
CC(Sc1nnnn1-c1ccccc1)C(=O)NC1CCCC1 (stereo unspecified)	.	1%	.	0.1%
O=C(Nc1c(C(=O)N2CCCCC2)cnn1-c1ccccc1)c1ccco1	-7	3%	2%	-1.1%
COc1cccc(C(=O)OCC(=O)c2ccc(S(=O)(=O)N3CCCCC3)cc2)c1OC	.	1%	.	-1.7%
CCN(C(=O)c1cn(C)c(=O)c2ccccc12)c1ccccc1F	.	-1%	2%	0.2%
Cc1cc(-c2ccccc2)n2ncc(-c3ccccc3)c2n1	-10	15%	-18%	0.2%
Cc1cccc(Cn2c(NCC(C)O)nc3c2c(=O)n(C)c(=O)n3C)c1 (stereo unspecified)	1	-15%	11%	-0.6%
CCc1cc2c(=O)c(-c3nc4ccccc4n3C)c(COCC(=O)O)oc2cc1OC(=O)C(C)(C)C	5	?	-6%	?
CCN(C(=O)CSc1nc2scc(-c3ccccc3)c2c(=O)n1C)C1CCS(=O)(=O)C1 (stereo unspecified)	.	-3%	.	0.4%

These rows are one share of the data; count on the stated rates, not on these rows.
